VCAM-1 down = inhibitors of TNFa-induced VCAM-1 surface display, cell-based, plate reader, pooled HUVEC, TNFa stimulus (AID 454); HUVEC TNFa-induced VCAM-1 surface immunofluorescence, plate reader; numbers were filed only for top-ranked candidate wells; inhibition, % at 5 µM; actives 0.2% (n = 10,000);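 active means compound among top-ranked inhibitors of TNF-induced VCAM-1 adhesion protein staining, with the hit upheld by image or statistical review; inactive means the rest, including hits rejected on review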;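 further: 0% = TNFa with vehicle and 100% = cells without TNFa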
VCAM-1 augmentation = enhancers of VCAM-1 display on endothelial cells, imaging, high-content imaging, pooled HUVEC, TNFa stimulus (AID 457); Pooled HUVEC, TNFa-induced VCAM-1 immunofluorescence imaging; hits of this screen are not shown here; calls only; actives 0.2% (n = 10,000);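 active means a top-ranked rise in VCAM-1 staining upheld on image or statistical review; inactive means the rest, including candidates rejected on review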;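 further: compounds tested at 5 µM in the well; cells exposed to compound for 24 hours before fixing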
FPRL1 ligand = human FPRL1 ligands by binding competition, primary screen, cell-based, FPR counter-screen, flow cytometry. actives 0.3% (n = 24,000). N-formyl peptide receptor 2 (Homo sapiens), P25090. FPRL1-expressing cells, fluorescent ligand binding inhibition. inhibition, %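 (tested at 6.7 µM)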;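 further: 0% = buffer alone and 100% = receptor blocker peptide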
Target sequence (P25090 whole entry, looked up): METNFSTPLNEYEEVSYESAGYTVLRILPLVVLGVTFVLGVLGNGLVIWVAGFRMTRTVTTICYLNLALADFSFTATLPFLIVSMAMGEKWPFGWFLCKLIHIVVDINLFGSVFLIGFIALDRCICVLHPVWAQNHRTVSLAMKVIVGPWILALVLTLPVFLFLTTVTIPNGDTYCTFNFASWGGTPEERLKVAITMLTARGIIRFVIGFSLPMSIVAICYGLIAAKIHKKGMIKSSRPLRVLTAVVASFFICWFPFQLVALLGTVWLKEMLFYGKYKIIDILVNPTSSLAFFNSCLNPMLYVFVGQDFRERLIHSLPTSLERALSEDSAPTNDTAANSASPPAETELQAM
VCAM-1 imaging = inhibitors of TNFa-induced VCAM-1 surface display, imaging, high-content imaging, pooled HUVEC, TNFa stimulus (AID 456); one-dose inhibition, % at 5 µM; IC50 in µM for titrated hits; actives 0.2% (n = 10,000); HUVEC TNFa-induced VCAM-1 surface expression, immunofluorescence imaging; numbers were filed only for top-ranked candidate wells;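 active means top tenth filtered wells with inhibition above zero that passed visual or statistical confirmation; inactive means the rest, including hits rejected on review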;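 further: 0% = stimulated vehicle wells and 100% = unstimulated cells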
FPR binder = human FPR ligands by binding competition, primary screen, cell-based, FPRL1 counter-screen, flow cytometry. FPR-expressing cells, fluorescent ligand binding. inhibition, %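 (tested at 6.7 µM)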. actives 0.74% (n = 24,000). AID 440, 2006;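 further: 0% = buffer wells and 100% = receptor blocker peptide wells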
Target sequence (P21462 whole entry, looked up): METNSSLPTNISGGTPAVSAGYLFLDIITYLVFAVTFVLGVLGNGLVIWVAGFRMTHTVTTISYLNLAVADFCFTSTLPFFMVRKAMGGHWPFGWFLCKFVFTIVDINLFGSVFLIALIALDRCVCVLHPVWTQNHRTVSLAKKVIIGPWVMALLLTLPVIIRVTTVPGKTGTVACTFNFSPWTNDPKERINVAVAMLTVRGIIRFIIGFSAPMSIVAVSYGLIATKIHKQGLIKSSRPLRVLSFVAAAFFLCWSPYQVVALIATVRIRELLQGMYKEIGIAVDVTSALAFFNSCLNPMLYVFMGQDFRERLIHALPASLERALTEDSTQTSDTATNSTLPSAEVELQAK
The depositor's hits bear a star; i = inactive; . = not tested or not shown.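 How the source made its calls, unless noted: active means mean above 30%; inconclusive means self-fluorescent; inactive means the rest.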 Only part of the results is shown. The share of hits here may be higher or lower than overall.

SMILES | VCAM-1 down | VCAM-1 augmentation | FPRL1 ligand | VCAM-1 imaging | FPR binder
COc1cc(C2N=C(c3ccccc3)NO2)cc(Br)c1O (configuration not stated) | i | i | 6 | i | -3
COc1ccc2nc(/N=C\N(C)C)sc2c1 | . | . | 1 | . | -6
CC(=O)N1CCCc2cc(S(=O)(=O)N(C)CCC#N)ccc21 | . | . | -2 | . | 5
Cc1ccc2oc(=O)c3cnn(CC(=O)N4CCN(c5ccccn5)CC4)c3c2c1 | . | . | 5 | . | 1
CCOc1ccc(/C(O)=C2/C(=O)C(=O)N(Cc3cccnc3)C2c2ccc(N(C)C)cc2)c(C)c1 (configuration not stated) | . | . | 11 | . | 28
CCCN(CCC)S(=O)(=O)c1ccc(C(=O)O)cc1 | i | i | 4 | i | -5
COc1cc(C2N(c3cc(C)on3)C(=O)C3CCCN32)cc(OC)c1OC (configuration not stated) | . | . | -3 | . | 2
Clc1ccc(C2=Nn3c(nnc3-c3cccnc3)SC2)s1 | . | . | 25 | . | 3
O=C(c1cc(-c2ccc(Cl)c(Cl)c2)on1)N1CCN(c2ccccc2)CC1 | . | . | 0 | . | 0
Fc1cc(Br)ccc1Nc1nc2ccccc2n2nnnc12 | . | . | 0 | . | -2
CCOC(=O)n1c(SCC(=O)N(CC)CC)nc2ccccc21 | i | i | -2 | i | -3
CC1CN(C(=O)CSc2nnc(-c3ccc(Cl)cc3)n2C)CC(C)O1 (configuration not stated) | i | i | 3 | i | -2
COc1ccc(-c2noc(CCC(=O)Nc3cc(OC)ccc3OC)n2)cc1 | . | . | -8 | . | -2
COC(=O)c1cc(Br)ccc1OC(=O)c1cccnc1 | . | . | 2 | . | 0
O=C(NCc1ccc(Cl)cc1)c1noc2c1CCCCC2 | . | . | 2 | . | 5
COc1cc(OC)cc(-c2cc3nc(C)c(CCC(=O)O)c(C)n3n2)c1 | . | . | -4 | . | 6
CC(C(=O)NCC1CCCO1)n1cccc1C(=O)c1ccccc1 (configuration not stated) | . | . | 2 | . | 1
CCS(=O)(=O)N1CCCC(C(=O)NC2CCCCC2)C1 (configuration not stated) | . | . | 3 | . | -2
Cc1ccc2cccc(SCC(=O)N3CCOCC3)c2n1 | i | i | 0 | i | 2
CCN1CCN(c2ncc(C(=O)Nc3cc(Cl)c(OC)cc3OC)c3ccccc23)CC1 | . | . | 6 | . | -8
Cn1c(=O)c2ccccc2n(Cc2ccccc2F)c1=O | i | i | -7 | i | -13
COc1cc(C2CC(=O)NC3=C2C(=O)CC(C)(C)C3)ccc1O (configuration not stated) | i | i | -1 | i | -1
Brc1ccc(C2=Nn3c(nnc3-c3cccnc3)SC2)s1 | . | . | -5 | . | 0
O=P(O)(O)c1ccccc1OCCCCCOc1ccccc1P(=O)(O)O | . | . | -1 | . | -1
CCOC(=O)N1CCC(NC(=O)CN2C(=O)CCSc3ccccc32)CC1 | i | i | 4 | i | 2

Sorted by length of the SMILES (rising): some entries from above.
SMILES | VCAM-1 down | VCAM-1 augmentation | FPRL1 ligand | VCAM-1 imaging | FPR binder
COc1ccc2nc(/N=C\N(C)C)sc2c1 | . | . | 1 | . | -6
Cc1ccc2cccc(SCC(=O)N3CCOCC3)c2n1 | i | i | 0 | i | 2
O=C(NCc1ccc(Cl)cc1)c1noc2c1CCCCC2 | . | . | 2 | . | 5
CCCN(CCC)S(=O)(=O)c1ccc(C(=O)O)cc1 | i | i | 4 | i | -5
COc1cc(C2N=C(c3ccccc3)NO2)cc(Br)c1O (configuration not stated) | i | i | 6 | i | -3
Clc1ccc(C2=Nn3c(nnc3-c3cccnc3)SC2)s1 | . | . | 25 | . | 3
CCOC(=O)n1c(SCC(=O)N(CC)CC)nc2ccccc21 | i | i | -2 | i | -3
CC(C(=O)NCC1CCCO1)n1cccc1C(=O)c1ccccc1 (configuration not stated) | . | . | 2 | . | 1
CC(=O)N1CCCc2cc(S(=O)(=O)N(C)CCC#N)ccc21 | . | . | -2 | . | 5
O=P(O)(O)c1ccccc1OCCCCCOc1ccccc1P(=O)(O)O | . | . | -1 | . | -1
COc1ccc(-c2noc(CCC(=O)Nc3cc(OC)ccc3OC)n2)cc1 | . | . | -8 | . | -2
COc1cc(C2N(c3cc(C)on3)C(=O)C3CCCN32)cc(OC)c1OC (configuration not stated) | . | . | -3 | . | 2
O=C(c1cc(-c2ccc(Cl)c(Cl)c2)on1)N1CCN(c2ccccc2)CC1 | . | . | 0 | . | 0
Cc1ccc2oc(=O)c3cnn(CC(=O)N4CCN(c5ccccn5)CC4)c3c2c1 | . | . | 5 | . | 1
CCN1CCN(c2ncc(C(=O)Nc3cc(Cl)c(OC)cc3OC)c3ccccc23)CC1 | . | . | 6 | . | -8
CCOc1ccc(/C(O)=C2/C(=O)C(=O)N(Cc3cccnc3)C2c2ccc(N(C)C)cc2)c(C)c1 (configuration not stated) | . | . | 11 | . | 28

Look-ups from the entries so far:
Value for `Cn1c(=O)c2ccccc2n(Cc2ccccc2F)c1=O` in FPR binder: -13
Value for `COc1ccc2nc(/N=C\N(C)C)sc2c1` in FPRL1 ligand: 1

Additional entries follow:
SMILES | VCAM-1 down | VCAM-1 augmentation | FPRL1 ligand | VCAM-1 imaging | FPR binder
Cc1cc(C)c2cc(CN(CC3CCCO3)C(=O)NC3CCCCC3)c(=O)[nH]c2c1 (configuration not stated) | i | i | -3 | i | 7
O=C(CCCn1c(=O)c2sccc2n(Cc2ccc(F)cc2)c1=O)NCc1ccco1 | i | i | -1 | i | 1
COCCCn1c(=N)c(C(=O)NCC2CCCO2)cc2c(=O)n3cccc(C)c3nc21 (configuration not stated) | i | i | 0 | i | 3
CCCCCC(C)n1[nH]c(=O)c2c(C)cc(C)nc21 (configuration not stated) | . | . | 10 | . | 15
CCC1c2ccc(C)n2CCN1C(=O)Nc1ccccc1C(=O)OC (configuration not stated) | . | . | -1 | . | 5
Clc1ccc(Cc2nnc(-c3ccccc3Br)o2)cc1 | . | . | -1 | . | -1
CCOC(=O)N1CCC(N2Cc3cccc(C(=O)NCc4ccc(C)cc4)c3C2=O)CC1 | . | . | 1 | . | -2
OCCNc1ncnc2c1c(-c1ccccc1)c(-c1ccccc1)n2Cc1ccco1 | i | i | -4 | i | 11
CCCCNC(=O)CSc1nc2ccccc2c(=O)n1C1CCCC1 | . | . | 1 | . | 4
CCC(CO)Nc1ncnc2c1cnn2-c1ccc(Cl)cc1 (configuration not stated) | i | i | -1 | i | 2
CC(=O)c1c(N2CCCCC2)nc(=O)n(-c2ccccc2)c1C | . | . | -3 | . | -8
CCOc1ccccc1OCC(=O)Nc1nnc(COC)s1 | i | i | 0 | i | -4
Cc1cc(=O)n2nc(N3CCC(C(=O)NCc4cccnc4)CC3)sc2n1 | . | . | 8 | . | 1
COc1ccc(CNC(=O)c2noc3c2CCCCC3)cc1 | . | . | -3 | . | -7
CCn1c(=O)n(CC(=O)N2CCN(c3ccccc3F)CC2)c(=O)c2ccccc21 | . | . | 5 | . | -3
COc1cc(OC)c(NC(=O)CCc2nc(-c3cccs3)no2)cc1Cl | . | . | -4 | . | -6
O=C(O)CCc1ccc(-c2cccs2)n1NC(=O)c1ccccc1Br | i | i | -1 | i | -3
CCN=C(Nc1cccc(F)c1)SC1CC(=O)N(c2ccc(OC)cc2)C1=O (configuration not stated) | . | . | 8 | . | 3
COc1cccc(OCCOCCN(C)CCO)c1 | i | i | -4 | i | -4
CC(=O)Nc1ccc(S(=O)(=O)NCC2CCC(C(=O)N3CCN(c4ccccn4)CC3)CC2)cc1 (configuration not stated) | . | . | 0 | . | 0
O=C(CN1CCOCC1)N1CCCc2c1c(=O)oc1ccc(OCc3ccccc3)cc21 | i | i | -1 | i | -4
CCOC(=O)c1c[nH]c2c3c(ccc2c1=O)CCCC3 | . | . | -3 | . | 2
CCOC(=O)N1CCC(Nc2c(N3CCN(c4cccc(C(F)(F)F)c4)CC3)c(=O)c2=O)CC1 | . | . | -3 | . | 1
CCC(=O)NCCSc1c[nH]c2ccccc12 | . | . | -1 | . | -2
CCOC(=O)c1ccc(NS(=O)(=O)c2cnc[nH]2)cc1 | . | . | -2 | . | -1

Next section
SMILES | VCAM-1 down | VCAM-1 augmentation | FPRL1 ligand | VCAM-1 imaging | FPR binder
CCOC(=O)N1CCC(NC(=O)Cn2cc3c(n2)CCC(C)C3)CC1 (configuration not stated) | i | i | 4 | i | -8
COc1ccc(NC(=O)C2CCCN2S(=O)(=O)c2ccc(F)cc2)cc1 (configuration not stated) | . | . | -1 | . | -5
CCOc1cc2[nH]c(=O)n(CC3CCC(C(=O)NCCC(C)C)CC3)c(=O)c2cc1OCC (configuration not stated) | . | . | -4 | . | 0
COc1ccc(N(CC(=O)Nc2ccccc2SC)S(C)(=O)=O)cc1OC | i | i | 7 | i | 18
CC1CC(C)CN(CCCNC(=O)Cc2c(C(=O)O)[nH]c3ccccc23)C1 (configuration not stated) | . | . | -15 | . | -8
Cc1ccc(CCNS(=O)(=O)c2cnc[nH]2)cc1 | . | . | 8 | . | 0
Cc1ccc2nc(-c3cccc(-c4nc5ccc(C)cc5o4)n3)oc2c1 | . | . | -5 | . | 0
COc1ccc(NC(=O)CCCCn2c(=O)[nH]c3ccccc3c2=O)cc1 | . | . | -3 | . | -2
CCOc1ccc(C2CC(=O)NC3=C2C(=O)CCC3)cc1 (configuration not stated) | . | . | 7 | . | -4
COc1cccc(-c2nc(CS(=O)(=O)CC(=O)NCc3ccccc3)c(C)o2)c1 | . | . | -13 | . | -4
Cc1ccsc1C1C(C(=O)O)c2ccccc2C(=O)N1C (configuration not stated) | . | . | 0 | . | 9
N#CC1=C(N)Oc2cc(O)ccc2C1c1ccncc1 (configuration not stated) | . | . | 3 | . | 3
CCCNC(=O)c1ccc(CNc2c(N3CCC(C(=O)OCC)CC3)c(=O)c2=O)cc1 | . | . | 2 | . | 1
O=C(Nc1ccc(Cl)cc1F)C1CCN(S(=O)(=O)c2cccnc2)CC1 | . | . | -1 | . | 5
Cn1cccc1-c1nc2ccc(NC(=O)c3ccco3)cc2[nH]1 | i | i | -4 | i | 2
COCCN1Cc2cccc(C(=O)NCc3ccc4c(c3)OCO4)c2C1=O | . | . | 33* | . | 25
Cc1cc(NC(=O)c2ccccc2Oc2ccccc2)no1 | i | i | 1 | i | 1
O=C1c2ccccc2C(Nc2ccc(S(=O)(=O)N3CCCCCC3)cc2)N1Cc1ccco1 (configuration not stated) | . | . | -5 | . | -3
CNc1oc(C)nc1S(=O)(=O)c1ccc(C)cc1 | . | . | 0 | . | 0
COc1cc(-c2nnc(SCC(=O)c3cc(C)n(CC4CCCO4)c3C)o2)cc(OC)c1OC (configuration not stated) | i | i | -8 | i | 3
Cc1cccn2c(=O)c3cc(C(=O)NC4CCCC4)c(=N)n(C4CCCC4)c3nc12 | i | i | -3 | i | 10
N#CCSc1nc2ccccc2c(=O)n1CCC(=O)NC1CCCCC1 | . | . | -3 | . | -6
CC(C)(C)SCCNC(=O)COc1ccccc1 | i | i | -3 | i | 4
COc1ccccc1CNC(=O)c1cc2c(=O)n(C)c3ccccc3c2n1C | . | . | 3 | . | 5
O=C(COc1ccc(Cl)cc1)NCc1nnc(SCC(=O)NCCc2ccccc2)o1 | . | . | 1 | . | 5
CCOC(=O)CN1CC23C=CC(O2)C(C(=O)Nc2ccc(OCC)cc2)C3C1=O (configuration not stated) | i | i | 1 | i | -1
COC(=O)C1=C(N)Oc2cc(C)[nH]c(=O)c2C1c1cc(OC)c(OC)c(OC)c1 (configuration not stated) | . | . | -6 | . | 2
Cc1cccc(Nc2ccccc2C(=O)OCC(=O)NCc2ccco2)c1C | . | . | -4 | . | -9
CCCCCCNC(=O)CCNC(=O)c1cc(OC)c(OC)c(OC)c1 | . | . | 2 | . | -6
CN1CCCN(CC(O)COCc2cccs2)CC1 (configuration not stated) | i | i | -5 | i | -3
